BJeLR viability: kills HRASV12-expressing BJeLR cells | BJeLR (HRASV12) viability, CellTiter-Glo ATP luminescence, 48 h; reference of the scale not given here | inhibition, % (concentration not given with the values) | 300,000 compounds, 0.17% hits | AID 1554;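 active = replicate mean above 50%; inconclusive = above 50% but judged a plate artefact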;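 note: 50 nL library stock added to about 25 µL; numbers are from one replicate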
Mtb hypoxia rep: inhibitors of hypoxia-regulated fluorescent reporter in Mycobacterium tuberculosis | fluorescence inhibition, % (concentration not given with the values) | 300,000 compounds, 0.1% hits | M. tuberculosis hypoxia-regulated fluorescent reporter, fluorescence;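 active = 35 to 45% if threefold the growth effect, above 45% if 1.5-fold the growth effect; inactive = the rest, general growth blockers included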;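 note: wells of about 50 µL received 100 nL stock; 0% = vehicle wells and 100% = reference inhibitor wells; whole bacteria with a GFP reporter of the hypoxia response; strong numbers were not always called active; many hits fall short of the cut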
PrP UTR inh: suppresses PrP 5' UTR mRNA reporter expression; cell-based PrP 5' UTR mRNA reporter, plate reader; inhibition, % (concentration not given with the values); 340,000 compounds, 0.35% hits; AID 488862;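 active = every replicate at 50% or more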;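 note: 0 = median of the neutral control wells; tested in H4 reporter cells; numbers are from one replicate; inactives centre near -14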
ugtP null kill: growth inhibition of S. aureus ugtP deletion strain; S. aureus RN4220 ugtP deletion, OD600 growth, 16 h; some inactives read as strong as hits; growth inhibition, % (test concentration not listed); 330,000 compounds, 0.54% hits;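 active = z-score under -3 and OD600 up to 0.15 on both plates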;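 note: plate controls were untreated wells for no effect and antibiotic for full effect; wells of about 80 µL received 100 nL stock; the first replicate is given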
RN4220 kill: S. aureus RN4220 growth inhibition; inhibition, % (no concentration beside the values); 330,000 compounds, 0.33% hits; OD600, 16 h;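 active = z-score of -3 or lower and OD600 up to 0.18 on both plates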;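 note: plate controls were untreated cells for no effect and reference antibiotic for full effect; stock transfer was 100 nL into about 80 µL; one replicate is shown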
Bead autofluor: counter-screen for toxin protease inhibitors: compound fluorescence | 360,000 compounds, 3.1% hits | fluorescence intensity (test concentration not listed) | compound autofluorescence counterscreen, microsphere flow cytometry; active compounds read high | AID 624483;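 active = at least 3 SD above the mean of all compounds, about 16000 in these data; inconclusive = too few beads counted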;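 note: 100 nL of 1 mM stock went into each well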
Mtb hypoxia rep growth: recorded beside Mtb hypoxia rep, whose call it bears; growth inhibition, %; measured here: M. tuberculosis growth (absorbance);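 0% = vehicle and 100% = reference antibiotic; read after six days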
An asterisk follows results filed as active; ? = inconclusive; nt = not tested or not shown.

molecule	BJeLR viability	Mtb hypoxia rep	Mtb hypoxia rep growth	PrP UTR inh	ugtP null kill	RN4220 kill	Bead autofluor
COCCCNC(=O)CC1C[C@H](C(=O)N2CCCCC2)[C@@]2(C)c3[nH]c4ccc(OC)cc4c3CCN2C1=O (some centres not stated)	nt	-6.5	-0.3	22.4	-5.7	-1.2	2973
Nc1nc(N)c(N=O)c(OCC2CCCCC2)n1	4.4	4.4	-10.3	-28.2	76.9	57.0	5773
O=C(Nc1ccc2c(c1)OCCO2)c1cc(-n2cnnc2)ccc1Cl	-5.1	nt	nt	-14.3	3.6	3.1	5415
CC(=O)Nc1cc2c(cc1NC(=O)Cn1nc(-c3ccc(F)cc3)ccc1=O)OCCO2	8.1	-8.9	-13.3	-12.0	7.4	1.5	6443
Cc1cccc(Nc2nc(N)c([N+](=O)[O-])c(N3CCN(C)CC3)n2)c1	-4.6	2.5	10.6	-5.0	-10.8	0.2	7092
Cc1nc(C(N)=NOC(=O)c2c(-c3ccccc3Cl)noc2C)cs1	nt	10.4	16.4	nt	1.5	1.6	nt
O=C1CC(c2ccc(Cl)cc2)n2nc(N3C(=O)CCC3=O)nc2N1 (configuration not stated)	-5.8	0.8	-1.1	-14.3	9.9	3.5	6583
CC(C)(C)c1ccc(C(=O)O/N=C(\N)c2ccccn2)cc1	4.6	nt	nt	77.2*	nt	nt	5052
O=C(NCc1ccco1)c1cc(NS(=O)(=O)c2cccc([N+](=O)[O-])c2)ccc1O	6.4	6.8	5.4	-5.8	11.6	2.0	4408
CCN(CC)S(=O)(=O)c1ccc(C(=O)NCc2ccc(C)cc2)cc1	-5.7	nt	nt	-23.4	-0.9	-0.1	5079
COc1ccc(CNc2nc3ccccc3s2)cc1OC	3.1	8.6	6.0	-36.9	2.9	2.2	3646
Cc1ccc(CNC(=O)[C@H](Cc2ccccc2)NC(=O)C2CCNCC2)cc1	2.3	2.7	6.2	-13.5	-0.1	1.5	5483
COc1cc(OC)c(C(=O)OCC(=O)N2CCOCC2)cc1OC	-10.8	7.2	5.6	-22.4	1.0	1.7	3621
Cc1cc(NC(=O)CN(C)S(=O)(=O)c2ccc(-c3ccc(=O)[nH]n3)s2)ccc1Br	-5.7	-11.3	-9.7	8.4	-4.8	-1.7	4533
CSCC[C@H](NC(=O)NCc1cccs1)C(=O)O	-2.1	nt	nt	2.5	nt	nt	?
COc1ccc(N(CC(=O)NC(C)(C)C)C(=O)CCC(=O)Nc2nccs2)c(OC)c1	-4.1	3.5	8.5	-11.3	9.1	3.8	3326
CC(=O)N1CCN(Cc2nc3scc(-c4ccccc4)c3c(=O)[nH]2)CC1	13.5	3.3	2.0	-7.2	4.8	4.0	4375
CCOc1ccccc1/C=N/NC(=O)CNC(=O)c1cccs1	10.7	nt	nt	-18.2	nt	nt	4267
Cc1cc(C)cc(NC(=O)COc2coc(CN3CCc4ccccc43)cc2=O)c1	-1.4	-11.0	-1.5	-5.7	-4.8	1.2	4658
C/C(C=NNc1ncc(C)c(=O)[nH]1)=C\c1ccccc1	nt	-8.3	5.0	nt	-2.0	-2.0	nt
COc1ccc(N(C(=O)c2ccncc2)S(=O)(=O)c2ccc(Cl)cc2)cc1	2.1	nt	nt	-7.8	-0.6	0.7	5294
Cc1ccc2cc(C(c3nnnn3C3CCCC3)N3CCN(c4ccc(F)cc4)CC3)c(=O)[nH]c2c1 (configuration not stated)	-9.0	0.3	1.4	-19.6	2.8	6.6	22513*
C#Cc1ccc2c(c1)COc1c3ccccc3nn1-2	1.0	2.0	-3.4	-91.1	9.7	14.5	3890
CC12CC(NC(=O)N1c1cccc(C(=O)N3CCCCC3)c1)c1ccccc1O2 (configuration not stated)	-8.3	6.2	5.2	0.7	5.5	1.1	5347
COCCC(=O)N1CCC(Oc2ccc(C(=O)NCCSC)cc2)CC1	-5.6	0.2	8.0	0.5	2.9	2.3	3812
Cc1nn(CC(=O)NCCCN2CCCCC2C)c(=O)c2cccn12 (configuration not stated)	-0.7	0.2	4.8	-32.0	4.3	5.1	5491
O=C(O)c1cc([N+](=O)[O-])ccc1Nc1ccccc1	4.6	-3.4	-0.8	-8.1	-10.7	8.8	2164
COc1ccc(C(=O)CC(=O)c2ccccc2O)cc1	-10.7	7.0	5.5	-59.1	2.8	-6.5	4576
CCC(Cc1ccccc1)NC(=O)C1CCN(c2nn3c(=O)cc(C)nc3s2)CC1 (configuration not stated)	-5.8	-5.8	1.0	-14.0	10.3	2.9	5056
COc1ccc(Cl)cc1S(=O)(=O)N1CCC(C(=O)NC2CCCC2)CC1	-2.6	1.5	4.4	-8.6	3.2	-0.1	5706

Whole records from above. Order of screens: BJeLR viability, Mtb hypoxia rep, Mtb hypoxia rep growth, PrP UTR inh, ugtP null kill, RN4220 kill, Bead autofluor
Results for `COCCC(=O)N1CCC(Oc2ccc(C(=O)NCCSC)cc2)CC1` = -5.6, 0.2, 8.0, 0.5, 2.9, 2.3, 3812
Results for `Cc1cc(C)cc(NC(=O)COc2coc(CN3CCc4ccccc43)cc2=O)c1` = -1.4, -11.0, -1.5, -5.7, -4.8, 1.2, 4658

Remaining list, next part:
molecule	BJeLR viability	Mtb hypoxia rep	Mtb hypoxia rep growth	PrP UTR inh	ugtP null kill	RN4220 kill	Bead autofluor
Cc1nc2nc[nH]c2cc1Br	2.4	6.7	-2.3	-4.1	-3.4	-11.8	3105
CC(CNC(=O)c1ccc(NC2=NC3CS(=O)(=O)CC3S2)cc1)c1ccccc1 (configuration not stated)	0.4	9.1	5.2	-29.6	-4.3	-10.3	6356
CCOc1ccc(S(=O)(=O)N2CCCC(C(=O)NCc3ccccn3)C2)cc1 (configuration not stated)	-3.4	6.4	-2.8	-7.2	7.9	6.6	3078
Cc1ccc(NS(=O)(=O)c2ccc(OCC(=O)Nc3cccc([N+](=O)[O-])c3)c(C)c2)cc1	1.9	5.6	7.3	-2.0	1.3	-12.5	12192
Cc1cc(-n2c(C)cc(C(=O)CSc3[nH]c(=O)cc(C(F)(F)F)c3C#N)c2C)no1	nt	-5.0	-7.9	nt	0.8	20.8	5029
Cc1ccc(-c2csc(N3CCCC3C(=O)NCCn3c(C(F)(F)F)nc4ccccc43)n2)cc1 (configuration not stated)	nt	3.0	4.0	nt	-9.1	2.4	nt
O=C(O)CC1C(=O)NCCN1CCCc1ccccc1 (configuration not stated)	-5.7	7.6	6.1	-16.9	6.5	0.6	6009
COc1ccccc1-n1c(SCC(=O)NC(C)(C)C)nnc1-c1ccco1	-0.9	-16.9	-7.6	-5.0	-3.0	-1.6	7855
CCCn1c(=O)c2ccccc2n2c(=S)[nH]nc12	-8.6	-0.2	9.0	-7.3	16.2	1.7	3582
NC(=O)C1CCN(c2oc(/C=C/c3ccccc3)nc2S(=O)(=O)c2ccccc2)CC1	10.6	-3.5	-4.2	-10.5	1.0	-3.9	4232
CCO[C@H]1OC(C(=O)Nc2ccccc2)=C[C@@H](c2ccc(C(F)(F)F)cc2)[C@@H]1CCCO	-3.9	nt	nt	-17.7	nt	nt	3993
Cc1cc(Br)ccc1OCC(=O)NNC(=O)C(=O)Nc1ccccc1	-0.7	-10.3	-0.6	-30.5	4.6	4.5	3196
CN(C(=O)COC(=O)C(C)(C)Oc1ccc(Cl)cc1)c1c(N)n(Cc2ccccc2)c(=O)[nH]c1=O	9.5	-5.0	-2.5	-25.6	9.0	3.1	?
Cc1cc(C(=O)NN=Cc2ccc(OC(=O)c3ccco3)cc2)c(C)o1	nt	17.4	14.4	-15.6	-0.5	10.3	3524
Cc1ccccc1OCC(=O)N/N=C/c1ccc([N+](=O)[O-])o1	-2.7	nt	nt	-2.9	nt	nt	2176
O=C1CCC([N+](=O)[O-])C(c2ccc3c(c2)OCO3)N1 (configuration not stated)	1.9	-6.0	9.4	-16.2	-15.2	-2.5	3907
COc1ccccc1S(=O)(=O)c1c(C)cc(C)[nH]c1=O	-1.9	6.1	9.0	-10.9	0.7	1.0	4200
NC(=S)Nc1ccc2c(c1)OCO2	4.1	20.7	37.6	-31.8	1.3	6.3	4012
COc1ccc(C(=O)N(C)c2c(C)n(C)n(-c3ccccc3)c2=O)cc1OC	-9.3	8.6	11.1	-5.3	12.8	1.3	1982
CCCCCCOC(=O)c1ccccc1NC(=O)/C=C/C(=O)O	-0.6	2.2	6.1	-21.2	-9.0	1.7	9091
Oc1ccc2[nH]cnc2c1CN1CCCCC1	3.4	12.5	9.9	-6.8	-6.3	-8.0	3096
Cc1ccc(C(=O)NCCCNC(=O)COc2ccc(Cl)c(C)c2)cn1	-4.0	6.5	3.9	-11.8	7.9	-0.1	4589
O=C(NC1CC1)C1CSC(c2cccnc2)=N1 (configuration not stated)	-3.1	3.9	2.8	-7.9	-0.6	-0.2	10033
Cc1cc(NS(=O)(=O)c2ccc(NC(=O)c3cnc4scc(C)n4c3=O)cc2)nc(C)n1	-3.1	1.7	-2.8	-13.4	2.7	-13.5	6158
O=C(C1CCC(=O)N1C1CCCC1)N1CCC2(CC1)OCCO2 (configuration not stated)	4.2	-1.2	4.1	-24.8	2.3	1.8	20240*
CN(C)C(=O)c1c(NC(=O)c2ccco2)sc2c1CCCCC2	-13.6	14.0	12.9	-18.1	4.3	0.8	2962
COc1ccccc1N1CCN(c2ccc(Cl)nn2)CC1	13.9	-2.5	5.0	-17.8	-4.7	-0.3	3187
Cc1ccc(S(=O)(=O)/N=C(/c2ccccc2)N(C)C)c(C)c1	-2.3	nt	nt	-24.9	nt	nt	3465
Clc1ccc(Oc2nc(N3CCOCC3)nc(N3CCOCC3)n2)cc1	2.0	2.1	2.4	-8.7	-1.6	-10.6	nt
COc1ccc(CSc2ncn[nH]2)cc1[N+](=O)[O-]	9.8	7.2	-0.3	-7.4	-0.5	1.3	2514

Laid out differently: 3 of the compounds above
SMILES: COc1ccccc1S(=O)(=O)c1c(C)cc(C)[nH]c1=O
  BJeLR viability: -1.9
  Mtb hypoxia rep: 6.1
  Mtb hypoxia rep growth: 9.0
  PrP UTR inh: -10.9
  ugtP null kill: 0.7
  RN4220 kill: 1.0
  Bead autofluor: 4200
SMILES: NC(=S)Nc1ccc2c(c1)OCO2
  BJeLR viability: 4.1
  Mtb hypoxia rep: 20.7
  Mtb hypoxia rep growth: 37.6
  PrP UTR inh: -31.8
  ugtP null kill: 1.3
  RN4220 kill: 6.3
  Bead autofluor: 4012
SMILES: COc1ccc(C(=O)N(C)c2c(C)n(C)n(-c3ccccc3)c2=O)cc1OC
  BJeLR viability: -9.3
  Mtb hypoxia rep: 8.6
  Mtb hypoxia rep growth: 11.1
  PrP UTR inh: -5.3
  ugtP null kill: 12.8
  RN4220 kill: 1.3
  Bead autofluor: 1982

The list continues.
| molecule | BJeLR viability | Mtb hypoxia rep | Mtb hypoxia rep growth | PrP UTR inh | ugtP null kill | RN4220 kill | Bead autofluor |
| --- | --- | --- | --- | --- | --- | --- | --- |
| O=C(COc1ccc2ccccc2c1)NNC(=O)C(=O)Nc1ccccc1 | 5.3 | -10.5 | -5.3 | -24.5 | -5.8 | -2.7 | 3046 |
| Cc1nn(-c2ccccc2)c(Cl)c1C=NNC(=O)c1cccc(S(=O)(=O)N2CCCC2)c1 | nt | 10.2 | 5.3 | nt | 3.8 | 1.2 | nt |
| CC(Sc1nc2ccccc2s1)C(=O)Nc1nnc(C(C)C)s1 (configuration not stated) | -0.3 | -7.9 | 2.8 | -14.0 | -4.6 | 17.2 | 5258 |
| Nc1nccnc1C(=O)OCC(=O)NCCc1ccc(Cl)cc1 | nt | 6.7 | 5.8 | -12.7 | 2.2 | 4.0 | 8772 |
| O=C(NCc1nnc2c(C(F)(F)F)cc(Cl)cn12)c1ccc2c(c1)OCO2 | 8.6 | -12.1 | 2.9 | -4.4 | 0.3 | 0.5 | 6140 |
| O=C(Nc1ccccc1)OCCOc1ccccc1Br | -3.2 | -8.4 | -6.4 | -34.0 | -10.2 | 3.1 | 4194 |
| CCN(C(=O)COC(=O)c1c(-c2ccccc2)noc1C)C1CCS(=O)(=O)C1 (configuration not stated) | 11.8 | nt | nt | -9.9 | 10.2 | 7.4 | 3499 |
| CN1CCN(/N=C/c2c3ccccc3c(Cl)c3ccccc23)CC1 | -4.6 | nt | nt | -14.1 | nt | nt | 5162 |

Assay outcomes deposited in PubChem BioAssay by several laboratories.
